# Source: PubChem BioAssay
# E coli growth: blocks Escherichia coli growth | OD600, 23 h; stronger effect = lower value | OD600 absorbance (test concentration not listed) | 0.21% of 330,000 active | AID 1053175;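 active = OD600 absorbance below the run mean of sample wells minus 3.6 SD, in any replicate, cut at about 0.56 in these data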;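 note: stock transfer was 300 nL into about 60 µL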
# HNF4A DNA FP: change in binding of human HNF4 alpha to DNA. HNF4a-FITC DNA binding, fluorescence polarization, 1 h. activity change, % at 10 µM. 0.3% of 360,000 active. AID 1224865; in the data active = activity change above about 30%, passing the limit was not always enough;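 note: controls were the assay level and a saturating level of protein; the project sought stronger binding though the title names inhibitors; some compounds called inactive have numbers as strong as hits; positive values seem to mean higher polarization but the record does not say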
# Target sequence (P41235 whole entry, looked up): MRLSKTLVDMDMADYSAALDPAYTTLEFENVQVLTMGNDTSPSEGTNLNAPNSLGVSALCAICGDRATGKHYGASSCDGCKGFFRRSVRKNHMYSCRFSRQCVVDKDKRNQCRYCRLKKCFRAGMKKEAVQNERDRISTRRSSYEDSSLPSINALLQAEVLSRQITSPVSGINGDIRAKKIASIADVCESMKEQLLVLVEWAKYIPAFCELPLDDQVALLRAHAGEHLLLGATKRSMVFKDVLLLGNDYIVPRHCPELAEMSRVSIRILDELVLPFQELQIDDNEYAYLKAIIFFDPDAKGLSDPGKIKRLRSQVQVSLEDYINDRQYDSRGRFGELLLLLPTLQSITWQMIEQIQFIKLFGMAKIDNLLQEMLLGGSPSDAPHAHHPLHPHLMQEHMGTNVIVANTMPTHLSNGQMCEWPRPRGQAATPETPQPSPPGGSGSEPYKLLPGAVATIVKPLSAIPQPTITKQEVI
# ALR inh: blocks human ALR sulfhydryl oxidase activity; inhibition, % (concentration not given with the values); 3.8% of 290,000 active; purified ALR, DTT oxidation, H2O2 HRP-luminol luminescence;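 active = mean and each replicate at 75% or more; inconclusive = only one of the two met; inactive = neither met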;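 note: stock transfer was 7.5 nL into about 7.5 µL; 0% = neutral wells and 100% = wells with inactivated enzyme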
# B2AR ag: activates human beta-2 adrenergic receptor causing internalization; AID 504454; P07550; Am2.2-beta2AR cells, FAP receptor internalization, flow cytometry; reference of the scale not given here; 0.43% of 340,000 active; response, % (no concentration beside the values);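 active = response above a set limit, near 3 SD of response in nonfluorescent compounds, cut at about 42% in these data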;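 note: stock transfer was 100 nL into about 11 µL; a reference agonist was the positive control; negative values mostly stem from fluorescent compounds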
# FGF22 binding: FGF22 (human) thermal shift binding; Q9HCT0; recombinant FGF22 thermal shift, SYPRO orange fluorescence; percent of sucrose octasulfate shift, DMSO zero; calls only at 9.99 µM; 1.5% of 340,000 active; AID 651658;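 active = melting point raised past a set limit in the mean and every replicate; inconclusive = no clear call; three in four hits are not shown here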
# Target sequence (Q9HCT0 whole entry, looked up): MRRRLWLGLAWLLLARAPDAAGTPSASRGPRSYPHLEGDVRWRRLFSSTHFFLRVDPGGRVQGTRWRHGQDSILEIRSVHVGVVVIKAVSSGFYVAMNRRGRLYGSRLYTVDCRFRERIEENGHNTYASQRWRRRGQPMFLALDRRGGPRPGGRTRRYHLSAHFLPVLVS
# UCH37 DUB inh: inhibitors of human deubiquitinating enzyme UCH37; inhibition, % (test concentration not listed); purified proteasome/UCH37, Ub-AMC cleavage fluorescence; Q9Y5K5; 0.33% of 330,000 active;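 active = mean of two replicates above 20%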;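 note: 0% = compound-free wells with enzyme and 100% = wells lacking proteasome; stock transfer was 100 nL into about 20 µL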
# Target sequence (Q9Y5K5 whole entry, looked up): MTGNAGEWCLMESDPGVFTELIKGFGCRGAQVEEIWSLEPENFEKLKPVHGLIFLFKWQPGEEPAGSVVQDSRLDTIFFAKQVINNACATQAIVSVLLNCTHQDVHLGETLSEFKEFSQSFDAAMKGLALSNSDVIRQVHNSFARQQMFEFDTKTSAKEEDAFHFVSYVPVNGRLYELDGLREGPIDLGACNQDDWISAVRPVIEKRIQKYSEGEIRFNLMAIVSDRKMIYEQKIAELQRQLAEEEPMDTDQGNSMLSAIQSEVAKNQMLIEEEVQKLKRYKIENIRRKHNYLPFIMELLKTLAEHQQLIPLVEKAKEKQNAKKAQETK
#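 Test system – human UCH37 enzyme supplied as purified proteasome complex · Incubation – 30 min preincubation with enzyme, 25 min cleavage at room temperature · Detection – AMC fluorescence from Ub-AMC cleavage, excitation 355 nm, emission 460 nm · Benchmarks – no-proteasome wells (full inhibition) and compound-free wells (no inhibition)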
# Ecoli rRNA inh: selective bacterial rRNA inhibition in E. coli; E. coli WT GFP vs humanized-ribosome RFP mutants, fluorescence, 24 h; stronger effect = lower value; DMSO median 0, no signal -100; GFP signal change (wild-type ribosome), % (concentration not given with the values); 1.6% of 350,000 active; AID 720706;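 active = significant combined selectivity score with lowered wild-type GFP, culture density cut under 30%, mutant RFP and density less affected; inactive = any of these conditions unmet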; note: one replicate is shown; some compounds called inactive have numbers as strong as hits
# Ecoli rRNA inh OD600: recorded beside Ecoli rRNA inh, whose call it bears; OD600 change, %; measured here: OD600 growth;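 optical density of the mix in the first replicate; 0 = DMSO median and -100 = no signal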
# Ecoli rRNA inh RFP: second read-out of Ecoli rRNA inh, no call of its own (marks repeat the call); RFP signal change, %; measured here: RFP humanized mutant strains;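 first replicate; 0 = DMSO median and -100 = no signal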
# * marks the source's active call; other numbers are inactive results; i = inactive; ? = inconclusive; . = not tested or not shown; + = active, no number.
cpd	smiles	FGF22 binding	Ecoli rRNA inh OD600	HNF4A DNA FP	UCH37 DUB inh	ALR inh	B2AR ag	Ecoli rRNA inh RFP	E coli growth	Ecoli rRNA inh
1	CC1CN(S(=O)(=O)c2cccc(C(=O)NCc3ccco3)c2)CC(C)O1 (configuration not stated)	i	6	-0.1	2.2	.	-7	-1.2	0.7	8
2	O=C1/C(=C/c2cccnc2)SC(=S)N1Cc1ccco1	i	3	6.9	.	.	-6	1.9	.	-6
3	CCN(CC)S(=O)(=O)N1CCC(C(=O)NCCN2CCOCC2)CC1	.	.	0.3	5.6	-1	1	.	0.75	.
4	O=C(O)C1CCCN(S(=O)(=O)c2ccc3c(c2)OCCO3)C1 (configuration not stated)	i	12	5.9	0.5	-11	5	-0.1	0.69	1
5	COc1ccc(NC(=O)C2CCCN(S(=O)(=O)c3cccc4nonc34)C2)cc1OC (configuration not stated)	i	-10	0.9	3.5	-9	7	-3.2	0.65	-15
6	COCCCNC(=O)c1cc2c(-c3cccc(OC)c3)nn(C)c2s1	i	-14	-0.8	-97	-9	0	1.6	0.66	-16
7	COc1ccc(CCN(Cc2cc3cccc(C)c3[nH]c2=O)C(=O)NC2CCCCC2)cc1OC	.	.	4.0	2.0	-7	5	.	0.74	.
8	Cc1csc2ncnc(N3CCN(C(=O)Nc4ccc(OC(F)(F)F)cc4)CC3)c12	i	.	-1.6	3.5	4	15	.	0.66	.
9	COc1cc(-c2cc(C(=O)N3CCCCCC3)c3ccccc3n2)cc(OC)c1OC	i	-21	-2.4	-30	.	4	7.0	0.67	-19
10	O=C(CCS(=O)(=O)c1ccc(Cl)cc1)NC1CCCC1	i	14	0.7	1.7	-4	1	-0.8	0.63	7
11	O=C(c1cccc(F)c1)N1CCN(S(=O)(=O)c2ccc(C(F)(F)F)cc2)CC1	.	.	4.0	2.4	4	-2	.	0.68	.
12	CCOC(=O)C1(CCCc2ccccc2)CCN(Cc2cnn(C)c2)CC1	.	-17	1.7	3.3	.	1	-1.4	0.69	0
13	CC(C)NS(=O)(=O)c1ccc(OCC(=O)N(C)Cc2ccccc2)cc1	.	.	4.0	-0.6	.	7	.	0.63	.
14	O=C(c1ccccc1)c1ccc(OC(=O)N2CCCC2)cc1	.	.	-0.2	3.5	-3	-2	.	0.66	.
15	CCCS(=O)(=O)NC(=O)C1(C)CCCN(C(=O)CSc2ccccc2)C1 (configuration not stated)	i	-4	-0.3	.	.	.	-2.1	.	-2
16	COc1ccc(N2CCN(C(=O)CNC(=O)c3ccc(C(C)(C)C)cc3)CC2)cc1	.	.	0.8	-1.9	-2	-3	.	0.82	.
17	O=C1C(Cc2ccccc2)Nc2ncnc(N3CCN(c4ccccc4)CC3)c2N1Cc1ccccc1 (configuration not stated)	i	20	1.6	4.5	-17	8	4.2	0.69	11
18	O=C(COC(=O)COc1ccccc1[N+](=O)[O-])NC1CCCCC1	i	.	-2.7	2.7	1	2	.	0.71	.
19	CCCCN(C(=O)c1ccc(S(=O)(=O)N2CCOCC2)cc1)C1CCS(=O)(=O)C1 (configuration not stated)	i	-3	-3.5	1.6	1	9	-2.2	0.68	3
20	COc1ccc(C2=NOC(Cn3nc(-c4ccccc4)cc3C(=O)NCc3cccc(Br)c3)C2)cc1 (configuration not stated)	i	3	2.2	.	-4	-1	1.8	.	7

# Retrieved one by one from above:
cpd	smiles	FGF22 binding	Ecoli rRNA inh OD600	HNF4A DNA FP	UCH37 DUB inh	ALR inh	B2AR ag	Ecoli rRNA inh RFP	E coli growth	Ecoli rRNA inh
18	O=C(COC(=O)COc1ccccc1[N+](=O)[O-])NC1CCCCC1	i	.	-2.7	2.7	1	2	.	0.71	.
7	COc1ccc(CCN(Cc2cc3cccc(C)c3[nH]c2=O)C(=O)NC2CCCCC2)cc1OC	.	.	4.0	2.0	-7	5	.	0.74	.

# Remaining list, next part
cpd	smiles	FGF22 binding	Ecoli rRNA inh OD600	HNF4A DNA FP	UCH37 DUB inh	ALR inh	B2AR ag	Ecoli rRNA inh RFP	E coli growth	Ecoli rRNA inh
21	Cn1nc(CC#N)c2c(=N)n(N)cnc21	i	18	8.2	0.5	.	11	3.7	0.7	23
22	COCCN1CCN(Cc2cn(C)nc2-c2cccc(Cl)c2)CC1	i	11	1.8	-0.5	-3	-3	0.1	0.69	21
23	CSc1ccc(Cc2ccc(Cl)cc2Cl)nn1	.	.	6.3	2.6	-8	-13	.	0.72	.
24	O=C(Cn1c2[n+](c3ccc(C(F)(F)F)cc31)CCCCC2)Nc1c(F)cccc1F	i	5	-2.8	-1.9	.	-6	-3.7	0.65	9
25	C[C@@H](C(=O)NCc1ccc(S(C)(=O)=O)cc1)[C@@H]1C[C@@]1(C)[C@@H](NC(=O)OCc1ccccc1)c1ccccc1	i	-3	-0.2	3.9	-1	5	4.1	.	-9
26	O=C(O)/C=C/c1cn(-c2ccccc2)nc1-c1ccc(-c2ccc([N+](=O)[O-])cc2)o1	i	0	-16	9.2	-3	11	-4.9	0.7	1
27	Cn1nccc1NC(=O)Nc1cccc([N+](=O)[O-])c1	i	4	0.0	1.6	-5	-14	0.3	0.62	22
28	O=[N+]([O-])c1ccc(N2CCN(S(=O)(=O)c3ccc(Cl)c(Cl)c3)CC2)cc1NCCN1CCOCC1	i	28	1.9	4.4	1	16	2.2	0.78	2
29	CC(=O)N1c2ccc(S(=O)(=O)NCC3CCC(C(=O)NC4CCCCC4C)CC3)cc2CC1C (configuration not stated)	i	18	0.9	3.9	-3	2	4.9	0.7	22
30	COc1ccc(N2CCN(C(=O)c3ccc(C)c(NC(=O)c4ccco4)c3)CC2)cc1	i	-7	1.1	4.1	51	-7	1.8	0.71	-3
31	CCOC(=O)CNC(=O)CSc1nnc(NC(=O)c2ccc3c(c2)OCO3)s1	i	18	-4.0	-14	-6	-2	1.2	0.74	5
32	CCCn1c(N)c(N(C)C)c(=O)n(CC(=O)Nc2ccc(OC(F)(F)F)cc2)c1=O	.	.	-0.6	4.2	11	-3	.	0.67	.
33	Clc1ccc(Cn2c(-c3cccnc3Cl)nc3ccccc32)cc1	.	.	2.2	-7.0	-1	7	.	0.67	.
34	O=Cc1ccc(OC(=O)c2cc(Cl)nc3ccccc23)cc1	i	10	2.2	0.6	5	13	-1.1	0.73	4
35	CCOC(=O)c1ccc(NC(=O)COc2ccc(S(=O)(=O)NC(C)CC)cc2)cc1 (configuration not stated)	.	.	2.4	-0.3	1	8	.	0.69	.
36	O=C(Nc1ccc2c(c1)OCCO2)c1cccc2nc3ccccc3nc12	.	.	-1.7	6.4	21	21	.	0.76	.
37	CC(=O)Nc1ccc(NS(=O)(=O)c2ccc3c(c2)oc(=O)n3C)cc1	i	7	-1.5	0.5	-5	-1	-3.1	0.71	2
38	CCOc1ccc(CCNC(=O)CCNC(=O)c2ccccc2Cl)cc1OCC	i	10	1.5	3.9	-7	-3	2.6	0.68	10
39	COc1cc(OC)cc(C(=O)OCC(=O)Nc2ccc3[nH]c(=O)[nH]c3c2)c1	.	1	-0.8	0.8	-13	-8	-0.6	0.68	11
40	NC(=O)NC[C@@H]1CC[C@@H](Cc2ccc(-c3ccccc3)cc2)O1	.	.	0.1	-0.3	.	2	.	0.71	.
41	O=C(Nc1ccccc1)C1CCCN(C(=O)c2ccc(F)cc2)C1 (configuration not stated)	i	.	0.5	1.3	.	0	.	0.66	.
42	CC(C)CCN(C)C1CCN(C(=O)Nc2c(F)cccc2F)CC1	i	16	-0.5	5.2	-13	-2	0.6	0.72	10
43	CCC(=O)N1CCc2cc(Br)cc(S(=O)(=O)N3CCCCCC3)c21	.	.	1.4	0.8	0	-11	.	0.72	.
44	COc1ccc(S(=O)(=O)N2CCCCCC2)cc1NC(C)C(=O)Nc1ccc(NC(C)=O)cc1 (configuration not stated)	i	-6	-1.2	1.7	.	-11	-4.2	0.7	-8
45	CCOC(=O)N1CCN(c2cc(=O)n(C)c(=O)n2C)CC1	i	7	-2.5	3.7	.	8	0.6	0.64	22
46	CC1(C)CC2CC(C)(CN2C(=O)NC(=O)c2ccccc2)C1 (configuration not stated)	i	6	-1.1	0.5	.	-5	1.2	0.66	7
47	COCCn1nnnc1C(c1cc2cc(C)ccc2[nH]c1=O)N1CCc2ccccc21 (configuration not stated)	.	.	-3.0	2.0	-26	0	.	0.71	.
48	Oc1ccc(CCNc2ncnc3ccc(Cl)cc23)cc1	i	.	3.6	0.8	?	7	.	.	.
49	O=C(NC1CCCc2ccccc21)c1cccc(Br)c1 (configuration not stated)	i	7	-0.8	-0.2	-4	1	-6.6	0.68	16
50	COc1ccc(NC(=O)N(C)C[C@@H]2OCc3ccccc3-c3c(n(C)c4ccccc34)C(=O)N([C@H](C)CO)C[C@H]2C)c(OC)c1	i	-4	2.7	.	.	.	2.9	.	1
51	COC(=O)c1ccc2c(=O)n(Cc3ccc(C(=O)NCCCN4CCC(C)CC4)cc3)c(=S)[nH]c2c1	i	12	7.6	1.2	26	22	15	0.71	5
52	Cc1ccc(C2=NO[C@@](CC(=O)O)(C(=O)Nc3ccc4c(c3)OCCO4)C2)cc1	i	15	1.9	1.2	-24	-12	0.2	0.67	6
53	COc1ccc(-n2ccnc(SCC(=O)NC3CCCC3)c2=O)cc1OC	i	-10	-2.1	3.5	.	8	5.3	0.7	-3
54	COc1ccc(OCCCC(=O)Nc2cccc(SC)c2)cc1	i	-38	1.1	4.1	5	5	-15	0.71	-21
55	O=C(OCCN1CCN(c2ncc(C(F)(F)F)cc2Cl)CC1)c1ccc(F)cc1	.	.	0.2	5.3	-35	8	.	0.73	.
56	COc1ccc(OC)c(COC(=O)c2cc([N+](=O)[O-])ccc2N2CCOCC2)c1	i	-9	-4.9	4.4	.	-3	2.6	0.69	-6
57	COc1cc(N(C(=O)Cc2cccs2)C(C(=O)NC2CCCCC2)c2ccc(C)cc2)ccc1-n1cnnn1 (configuration not stated)	.	.	4.9	3.1	12	-19	.	0.73	.
58	CC(=O)N1CCc2c(sc(NC(=O)Cc3ccc(F)cc3)c2C#N)C1	i	5	0.9	4.1	-3	1	-2.2	0.71	-1
59	COc1ccccc1NC(=O)c1ccc(NC(=O)CSc2n[nH]c(N)n2)cc1	i	-5	1.3	.	.	2	-0.4	.	-3
60	CN(C)c1ccc(NC(=O)Nc2ccc3c(c2)c(=O)n(C)n3Cc2ccccc2)cc1	i	-12	-6.8	.	.	.	4.0	.	-5
61	Cc1cccc(NC(=O)NCCN2CCCCC2)c1	i	7	-2.5	4.5	2	0	1.1	0.7	9
62	c1ccc(Nc2ncnc3sc4c(c23)CCC4)cc1	.	.	-2.6	4.2	-4	-1	.	0.69	.
63	Cc1ccn(-c2ccc(NC(=O)c3cccs3)cc2)n1	+	-28	2.0	-1.0	17	-6	16	0.64	-8
64	Cc1ccc(/C=N/NC(=O)c2cccc([N+](=O)[O-])c2)o1	i	3	4.4	.	3	-7	-4.2	.	7
65	COC(=O)Cc1ccc2sc(-c3ccccc3)nc2c1	.	.	-0.9	-1.2	.	4	.	0.65	.
66	O=c1cc(CO)oc(C(Nc2ccccn2)c2ccc(C(F)(F)F)cc2)c1O (configuration not stated)	.	.	2.9	1.0	5	2	.	0.62	.
67	Cc1nn(-c2ccccc2)c(=S)n1-c1ccccc1	.	.	0.7	5.8	-28	1	.	0.66	.
68	Cc1ccc(/C=C/C(=O)NCCc2c[nH]c3ccccc23)o1	i	-8	-0.2	9.1	11	6	4.3	0.68	-4
69	CCC(C)(O)c1[nH]c2ccc(C(=O)OC)cc2c1C (configuration not stated)	i	2	2.6	4.4	36	-3	1.5	0.68	-2

# This is a subset, so the mix of outcomes need not match the whole.
